RGS16-Gao = regulators of human RGS16-Galphao interaction; AID 1441; O15492+P09471; hit rate 0.38% among 220,000; bead-based flow cytometry RGS16-Galphao binding, fluorescence; actives lie on both sides; binding response (% of control), % at 10 µM;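 active means below 25% or above 175%, edge rows of some plates excepted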;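 further: Galphao activated by GDP with aluminum fluoride before binding; 100% = wells without compound and 0% = beads without RGS; some results beyond the cut were filed as inactive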
Target sequence (O15492 whole entry, looked up): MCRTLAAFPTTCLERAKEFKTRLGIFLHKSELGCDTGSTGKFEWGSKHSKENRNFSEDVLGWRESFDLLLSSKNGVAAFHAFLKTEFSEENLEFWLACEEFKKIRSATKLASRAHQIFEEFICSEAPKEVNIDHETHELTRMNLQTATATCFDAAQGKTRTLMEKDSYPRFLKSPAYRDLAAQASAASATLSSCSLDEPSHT
Target sequence (P09471 whole entry, looked up): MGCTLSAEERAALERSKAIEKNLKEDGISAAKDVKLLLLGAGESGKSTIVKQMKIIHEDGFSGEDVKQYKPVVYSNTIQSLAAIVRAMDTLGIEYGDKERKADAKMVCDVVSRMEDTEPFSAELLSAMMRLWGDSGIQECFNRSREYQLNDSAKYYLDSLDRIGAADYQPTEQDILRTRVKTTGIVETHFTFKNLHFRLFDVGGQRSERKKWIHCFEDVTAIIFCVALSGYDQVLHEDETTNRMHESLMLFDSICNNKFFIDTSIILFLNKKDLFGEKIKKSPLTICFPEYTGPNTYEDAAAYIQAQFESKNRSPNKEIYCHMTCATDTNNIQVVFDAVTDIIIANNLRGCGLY
GALR2 ag = activates the human galanin receptor 2; AID 803; activation, %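 (tested at 5 µM)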; O43603; GALR2-expressing cells, agonist activation read-out; hit rate 0.48% among 140,000;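 active means above mean plus 3 SD of all compounds, about 5% in these data, not always enough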;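 further: 0% = vehicle buffer wells and 100% = reference agonist at full effect; tested in CHO reporter cells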
Target sequence (O43603 whole entry, looked up): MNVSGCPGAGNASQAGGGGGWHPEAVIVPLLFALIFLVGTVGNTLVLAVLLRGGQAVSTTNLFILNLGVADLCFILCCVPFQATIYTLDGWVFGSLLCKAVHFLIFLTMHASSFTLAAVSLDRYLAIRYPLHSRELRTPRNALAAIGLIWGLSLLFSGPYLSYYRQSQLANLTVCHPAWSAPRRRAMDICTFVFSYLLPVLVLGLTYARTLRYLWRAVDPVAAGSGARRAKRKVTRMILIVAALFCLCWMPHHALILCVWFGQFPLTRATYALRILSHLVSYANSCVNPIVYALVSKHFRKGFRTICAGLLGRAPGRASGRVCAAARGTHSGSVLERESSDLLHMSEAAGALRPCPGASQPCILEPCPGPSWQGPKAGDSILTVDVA
HSV replic up = increases HSV replication in cells; maximum fold increase; HSV replication augmentation in cells, fold increase; hit rate 0.005% among 220,000;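 active means peak rise of 1.5-fold or more in the series; inconclusive means self-fluorescent or not available for retest; tested in PC3 cells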;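 further: first round at 10 µM; read as green reporter fluorescence; hits show the peak of a series up to 25 µM; 1 = signal of infected wells without compound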
INS promoter inh = TRM-6 insulin promoter activity inhibition; hit rate 0.9% among 130,000; TRM-6 cells (human fetal islet line), insulin promoter-eGFP reporter, imaging; reporter expression induced with tamoxifen; inhibition, % at 2 µM; AID 1273;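 active means inhibition above the mean plus 3 SD, with well images judged a real hit on visual review, cut at about 60% in these data, passing the limit was not always enough; inconclusive means inhibition over the cutoff but images rejected on review; inactive means inhibition not above the cutoff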
PKD1 kinase inh = inhibitors of human PKD1 kinase; Q15139; PKD1 kinase fluorescence polarization assay; inhibition, %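 (about 10 µM by stock and volumes)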; hit rate 0.056% among 200,000; AID 797;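 active means inhibition of 50% or more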;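 further: controls were vehicle for no effect and a reference inhibitor for full effect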
INS promoter inh cell count = also measured in INS promoter inh; calls as there; normalized cell count, %; measured here: cell count, toxicity; reference of the scale not given here;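 cells exposed to compound for 48 h; stained nuclei by imaging scaled within each plate; lower means fewer cells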
HSV replic up primary fold = further read-out of HSV replic up, marked with its call; fold increase; compound at 10 µM; measured here: primary screen fold increase 10 uM; tested in PC3 cells;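 GFP signal in the first replicate; 1 = infected wells without compound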
Numbers without * were called inactive; i = inactive; ? = inconclusive; nt = not tested or not shown; [ ] = dose if it differs, or a comment. Compounds as they come. Share with any hit: about 1.3%.

SMILES | RGS16-Gao | GALR2 ag | HSV replic up | HSV replic up primary fold | INS promoter inh | INS promoter inh cell count | PKD1 kinase inh
CN=C(Nc1cccc(Cl)c1)SC1CC(=O)N(c2ccc(OC)cc2)C1=O (stereo not drawn) | 114 | nt | i | 0.85 | -61 | 37 | -1
COc1ccc(C2N=C(N)N=C(N)N2c2ccccc2OC)cc1OC (stereo not drawn) | 140 | -2.7 | i | 0.94 | 66 | 79 | -2
COc1ccc(S(=O)(=O)CCC(=O)NCCc2ccc(C)cc2)cc1 | 98 | 0.0 | i | 0.87 | -25 | 104 | -14
O=C(COc1ccc(S(=O)(=O)NC2CCCCC2)cc1)NC1CCCC1 | 101 | nt | i | 1.1 | nt | nt | -1
O=C(COC(=O)c1ccc2c(c1)OCCO2)NCc1ccccc1 | 82 | -1.1 | i | 1 | -100 | 125 | 4
COC(C[C@@H](O)C[C@H](O)COCc1ccccc1)OC | 101 | nt | i | 0.86 | nt | nt | nt
O=C(NCc1ccc2c(c1)OCO2)C1CCN(S(=O)(=O)N2CCOCC2)CC1 | 28 | -1.0 | i | 0.97 | 6 | 138 | 1
CC(C)=NOc1cc(NC(=O)CCl)cc([N+](=O)[O-])c1 | 106 | -1.3 | i | 0.97 | -7 | 86 | -14
CCOC(=O)/C(C(=O)Nc1ccc(Cl)cc1Cl)=C1/NC(C)(C)Cc2ccccc21 | 110 | -0.7 | i | 1 | -33 | 112 | 7
CCCN(CCC)C(=O)C1CCCN1S(=O)(=O)c1cccc2nsnc12 (stereo not drawn) | 97 | nt | i | 1 | nt | nt | nt
Nc1c(C(=O)NCc2ccccc2)sc2nc3c(cc12)C(=O)CCC3 | 99 | -0.2 | i | 0.96 | -11 | 85 | -6
Cc1cc(C)n(C(=O)c2ccc(C)c(S(=O)(=O)N3CCCC3)c2)n1 | 106 | -1.3 | i | 1 | 12 | 81 | -15
COC(=O)CSc1nnc(CCc2nc3ccccc3[nH]2)n1C | 100 | -2.5 | i | 0.98 | -127 | 99 | -2
CCOc1ccc(-c2[nH]ncc2-c2csc(C)n2)c(O)c1 | 102 | -0.6 | i | 0.88 | nt | nt | -8
Cc1ccc(S(=O)(=O)N2CCN(C(=O)CN3CCCCC3)C2C(C)C)cc1 (stereo not drawn) | 95 | -2.3 | i | 0.93 | -6 | 87 | -5
Cc1nc2c(-c3ccc(F)cc3)c(C)nn2c(C)c1CCC(=O)N1CCC(Cc2ccccc2)CC1 | 102 | -2.3 | i | 1.1 | nt | nt | 4
CC(=O)N1CCC(N(CCCOC(C)C)C(=O)Nc2ccc(Cl)cc2)CC1 | nt | -2.4 | i | 0.88 | nt | nt | -5
CCC1=C(OC(=O)N(CC)CC)N2C(=O)OC(=NCC3CC3)[C@]2(C)[C@H]2C1=CC[C@H]1C(=O)NC(=O)[C@H]12 | 103 | nt | i | 1 | nt | nt | nt
Cc1ccc(S(=O)(=O)N2CCN(CC(=O)N/N=C\c3cccnc3)CC2)cc1 | 100 | 0.0 | i | 1 | 0 | 54 | -9
C/C(=N\O)c1ccn(S(=O)(=O)c2ccc(Cl)cc2)c1 | 103 | nt | i | 1.1 | nt | nt | nt
COc1ccccc1CNc1ncnc2c1nnn2Cc1ccccc1 | 99 | -0.4 | i | 1 | 43 | 113 | -9
N#C/C(=C\c1ccccc1)C(=O)N(c1ccccn1)C1CCCCC1 | 100 | 1.3 | i | 0.91 | 31 | 121 | 1
CCc1ccc(NC(=S)N2CCN(c3cccc(OC)c3)CC2)cc1 | 104 | nt | i | 0.95 | nt | nt | 1
COc1ccccc1N(CC(=O)N(c1ccccc1)C(C)C)S(=O)(=O)c1cccs1 | 99 | nt | i | 1.1 | -53 | 84 | -1
O=C1N/C(=N/c2ccccn2)SC1Cc1ccccc1 (stereo not drawn) | 99 | 0.0 | i | 0.84 | -39 | 102 | -3
(more compounds)
SMILES | RGS16-Gao | GALR2 ag | HSV replic up | HSV replic up primary fold | INS promoter inh | INS promoter inh cell count | PKD1 kinase inh
Cc1nn(Cc2ccc(F)cc2)c2sc(C(=O)Nc3ccccc3N3CCOCC3)cc12 | 15* | -0.2 | i | 0.99 | 0 | 95 | 5
O=C(O)c1cccc(Nc2cc(Cl)c3nonc3c2[N+](=O)[O-])c1 | 93 | nt | i | 0.96 | nt | nt | 0
CN(C)CCN1C(=O)c2oc3ccccc3c(=O)c2C1c1ccc(F)cc1 (stereo not drawn) | 106 | 1.0 | i | 0.93 | 6 | 59 | 3
CC1(C)CC(=O)C2=C(C1)OC(N)=C([N+](=O)[O-])C2c1ccc(C#N)s1 (stereo not drawn) | 104 | nt | i | 1.2 | -105 | 129 | -4
Cc1ccc(C)c(-c2cc(C(=O)Nc3sc(C)c(C)c3C(N)=O)c3ccccc3n2)c1 | 98 | -1.9 | i | 0.62 | nt | nt | 8
Cc1ccc(S(=O)(=O)c2nc(Nc3nccs3)sc2Cl)cc1 | 104 | -0.1 | i | 0.99 | nt | nt | -3
CCOC(=O)c1c(C)sc2c1N(C(=O)CN1CCOCC1)c1cc(Cl)ccc1S2 | 102 | -0.5 | i | 0.86 | -162 | 91 | 0
Cn1c(NC(=O)c2ccco2)c(-c2ccccc2Cl)c(=O)c2ccccc21 | 86 | -0.3 | i | 0.93 | 58 | 88 | 15
COC(=O)COC(=O)CC(CC(N)=O)c1ccccc1 (stereo not drawn) | 100 | -1.4 | i | 0.87 | nt | nt | 10
CCOC(=O)/C(C#N)=C1/C=CN(Cc2ccccc2)C=N1 | 102 | -2.7 | i | 1.1 | 6 | 91 | -8
CN(c1ccccc1C(=O)Nc1cccc(Cl)c1Cl)S(C)(=O)=O | 106 | 0.5 | i | 0.89 | -79 | 74 | -1
Cc1cccc(Nc2nc3c(S(=O)(=O)c4ccccc4)nnn3c3ccccc23)c1C | 91 | 2.1 | i | 0.61 | -4 | 106 | -8
O=C(Nc1cccc(Cl)c1N1CCCC1)c1cc2ccccc2o1 | 118 | -1.3 | i | 0.96 | 41 | 72 | -12
CCCN(C(=O)c1cc(S(=O)(=O)N2CCCCC2)ccc1Cl)C1CCS(=O)(=O)C1 (stereo not drawn) | 102 | nt | i | 1.1 | nt | nt | nt
Cc1cc(=O)[nH]c(SCC(=O)Nc2nc3c(s2)CCCC3)n1 | 104 | -2.1 | i | 0.81 | 42 | 98 | 16
N#Cc1cnn(-c2cccc(Cl)c2)c1-n1cccc1 | 98 | nt | i | 0.9 | nt | nt | nt
COC(=O)c1ccccc1NC=C1C(=O)OC2(CCCCC2)OC1=O | 97 | -1.3 | nt | nt | nt | nt | -5
CCc1ccc2nc(N3C(=O)C(O)=C(C(=O)c4ccco4)C3c3cccs3)sc2c1 (stereo not drawn) | 107 | -1.1 | i | 0.98 | 25 | 85 | -6
CC1C(c2ccccc2)C(C#N)(C#N)C2(C#N)C(=O)NC1(N)C2C (stereo not drawn) | 116 | -3.5 | i | 1 | 19 | 244 | 4
COc1ccccc1C(=O)Nc1ccc(N2CCN(C(C)=O)CC2)cc1 | 101 | nt | i | 0.89 | nt | nt | -1
O=S(=O)(Nc1ccc2nc(C(F)(F)F)[nH]c2c1)c1ccccc1 | 108 | -2.7 | i | 0.89 | -7 | 137 | -8
Cc1ccc(-n2c(C)cc(/C=N/NC(=O)CC3(C)OCCO3)c2C)cc1 | 107 | -1.5 | i | 0.96 | -38 | 68 | -1
CC1CCCCC1N1CCN(C(=O)c2cccc(F)c2)CC1 (stereo not drawn) | 115 | -2.6 | i | 0.9 | -86 | 156 | 4
Cc1ccc(NC(=O)N/C=C/c2ccc(Cl)cc2)cc1 | 101 | -1.0 | nt | nt | nt | nt | 5
O=C1N/C(=N\S(=O)(=O)Cc2ccccc2)S/C1=C/c1cc([N+](=O)[O-])ccc1O | 103 | nt | ? | nt | nt | nt | nt

Grouped by structure: the entries above with a furan ring, fused or not (3)
SMILES | RGS16-Gao | GALR2 ag | HSV replic up | HSV replic up primary fold | INS promoter inh | INS promoter inh cell count | PKD1 kinase inh
Cn1c(NC(=O)c2ccco2)c(-c2ccccc2Cl)c(=O)c2ccccc21 | 86 | -0.3 | i | 0.93 | 58 | 88 | 15
O=C(Nc1cccc(Cl)c1N1CCCC1)c1cc2ccccc2o1 | 118 | -1.3 | i | 0.96 | 41 | 72 | -12
CCc1ccc2nc(N3C(=O)C(O)=C(C(=O)c4ccco4)C3c3cccs3)sc2c1 (stereo not drawn) | 107 | -1.1 | i | 0.98 | 25 | 85 | -6

The listing continues.
SMILES | RGS16-Gao | GALR2 ag | HSV replic up | HSV replic up primary fold | INS promoter inh | INS promoter inh cell count | PKD1 kinase inh
COc1ccc(-c2cc(C(=O)NCCN3CCOCC3)c3ccccc3n2)c(OC)c1 | 109 | -1.5 | i | 0.88 | 11 | 98 | 21
CCCC(=O)N(CCN(C(=O)CCC)c1ccccc1)c1ccccc1 | 95 | -1.2 | i | 0.85 | -12 | 124 | 8
CSc1ccc(C2CC(=O)Nc3c2c(=O)n(C)c(=O)n3C)cc1 (stereo not drawn) | 86 | nt | i | 0.99 | nt | nt | nt
CCc1cc(C(=O)O)c(NC(=O)c2cc(OC)c(OC)c(OC)c2)s1 | 105 | nt | i | 0.99 | 7 | 56 | 2
COc1cc(C2c3c([nH]c(=O)[nH]c3=O)Nc3ccc4ccccc4c32)ccc1O (stereo not drawn) | 113 | nt | i | 0.91 | 36 | 147 | -2
O=C1CCC(C(=O)OCc2c(Cl)cccc2Cl)N1 (stereo not drawn) | 94 | -2.6 | i | 0.77 | 25 | 84 | 4
O=C(NNC1=C(C(=O)C(F)(F)F)CCC1)c1ccc(Cl)cc1 | 104 | 0.1 | i | 0.92 | -24 | 109 | 2
COc1ccc(C(=O)Oc2cccc3cccnc23)cc1[N+](=O)[O-] | 64 | nt | i | 0.73 | nt | nt | -4
CC1(C)CC2CC(C)(CN2C(=S)Nc2ccccc2)C1 (stereo not drawn) | 108 | nt | i | 0.96 | 0 | 126 | -6
CCCc1cc(=O)[nH]c(SCC(=O)c2ccc3c(c2)NC(=O)CO3)n1 | 342*[activator] | nt | i | 0.89 | nt | nt | nt
CCOc1ccc2[nH]c(C)c(CN3CCN(CC)CC3)c(=O)c2c1 | 169 | -1.3 | i | 0.98 | -85 | 92 | -8
CCOCCCNc1ncc2c(n1)CC(c1ccc(C)cc1)CC2=O (stereo not drawn) | 106 | -3.4 | i | 1.1 | -164 | 41 | 9
O=C(NCN1C(=O)C2C3C=CC(C3)C2C1=O)Nc1ccccc1O (stereo not drawn) | 101 | nt | i | 1.1 | nt | nt | 1
Nc1nc2n(n1)C(c1ccco1)CC(c1ccccc1)N2 (stereo not drawn) | 91 | -2.1 | i | 0.81 | 24 | 125 | -3
COc1ccccc1/C=C/C=N/NC(=O)CC1C(=O)NN=C1C (stereo not drawn) | 102 | nt | i | 1.1 | nt | nt | nt
CSc1ncc(CN2CCN(C3CCCCC3)C(CCO)C2)cn1 (stereo not drawn) | 102 | nt | i | 1.1 | nt | nt | 3
CC(=O)c1ccc(O)c(CO)c1 | 105 | -1.5 | i | 0.88 | nt | nt | -2
Cc1cc(C)cc(OCC(=O)NNC(=O)c2ccoc2C)c1 | 98 | -2.0 | i | 1.1 | 11 | 90 | 0
CCOC(=O)CC1=C(C(=O)OCC)C(c2cccnc2)C(C#N)=C(N)O1 (stereo not drawn) | 92 | -2.7 | i | 1.1 | -21 | 78 | 2
COC(=O)c1ccc(C(=O)OC)c(NC(=O)c2cnc3n(c2=O)CCS3)c1 | 95 | 1.0 | i | 1 | 50 | 112 | -6
CCOC(=O)c1c(NC(=O)CSc2nnnn2CC)sc(C)c1C | 97 | 2.6 | i | 0.85 | nt | nt | -7
O=C(NC(=S)N1CCN(c2nc(-c3ccccc3)cs2)CC1)c1cncc(Br)c1 | 106 | nt | i | 0.99 | 29 | 114 | 0
Cc1ccc2c(c1)N(CCC(=O)NCc1ccc3c(c1)OCO3)C(=O)CO2 | 104 | -1.6 | i | 0.94 | 9 | 113 | 6
COc1ccccc1-c1nc2cc3ccccc3cc2nc1-c1ccccc1 | 100 | -0.7 | i | 1 | nt | nt | -1
CCOC(=O)/C(=N\Nc1ccc(Br)cc1)N1CCN(c2ccccc2OC)CC1 | 101 | nt | i | 1 | 33 | 131 | -6
COc1ccc2[nH]c(=O)c(CN(C)C(=O)COc3ccccc3)cc2c1 | 105 | -2.4 | i | 0.86 | nt | nt | -12

Record cards, as listed above.
CCOCCCNc1ncc2c(n1)CC(c1ccc(C)cc1)CC2=O (stereo not drawn) in the list: RGS16-Gao = 106; GALR2 ag = -3.4; HSV replic up = i; HSV replic up primary fold = 1.1; INS promoter inh = -164; INS promoter inh cell count = 41; PKD1 kinase inh = 9
COc1ccc2[nH]c(=O)c(CN(C)C(=O)COc3ccccc3)cc2c1 in the list: RGS16-Gao = 105; GALR2 ag = -2.4; HSV replic up = i; HSV replic up primary fold = 0.86; INS promoter inh = nt; INS promoter inh cell count = nt; PKD1 kinase inh = -12
